Source: PubChem
GLA inh pH 4.5: blocks human alpha-galactosidase A at pH 4.5; P06280; purified enzyme, 4-MU-alpha-Gal fluorescence, pH 4.5; activity change, negative = inhibition, % at 105 µM; 230,000 tested, under 10 active; AID 1467; inconclusive = small, poorly fitted or top-dose-only inhibition, or a rising curve; inactive = flat fitted curve, though single readings scatter; no compound was filed as active;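 note: 0% = full activity with enzyme and -100% = basal without enzyme; dose as in the result columns while the protocol names 77 µM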
miR-21 FLuc: raises the signal of a miR-21 reporter; HeLa miR-21 FLuc reporter, luciferase, 48 h; Potency, µM (top dose mostly 38.3 µM), without a hit: top-dose reporter change, positive = more light; 340,000 tested, under 10 active; AID 2288; active = well fitted rising curve with a large enough effect; inconclusive = small, poorly fitted or top-dose-only effect; inactive = no such curve, though single readings can be large or run the other way;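 note: % of control where 0% means no effect; miR-21 action dims this reporter so a rising signal means less miR-21 action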
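HeLa miR-21-FLuc reporter line, endogenous miR-21; 2000 cells/well in DMEM/10% FBS; compound titration up to ~40uM final, 48 h, 37 degree Celsius; luciferase detection reagent, 15 min lysis, CCD luminescence.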
Rango-impB inh: prevents formation of the Rango-importin beta complex | AID 540263 | Rango CFP/YFP FRET sensor + importin beta, 45 min | Potency, µM (series often up to 92.2 µM), for inactives: top-dose inhibition of complex formation | hit rate 0.031% among 340,000; active = rising FRET ratio curve, often small or poorly fitted; inconclusive = mostly compound fluorescence or quenching in the first reads; inactive = flat curves in all reads;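 note: potency is the fitted concentration of half-maximal effect; 0% = DMSO wells and 100% = buffer wells lacking importin beta; nearly all actives have a fitted effect of over 15% in size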
Target sequence (Q14974 whole entry, looked up): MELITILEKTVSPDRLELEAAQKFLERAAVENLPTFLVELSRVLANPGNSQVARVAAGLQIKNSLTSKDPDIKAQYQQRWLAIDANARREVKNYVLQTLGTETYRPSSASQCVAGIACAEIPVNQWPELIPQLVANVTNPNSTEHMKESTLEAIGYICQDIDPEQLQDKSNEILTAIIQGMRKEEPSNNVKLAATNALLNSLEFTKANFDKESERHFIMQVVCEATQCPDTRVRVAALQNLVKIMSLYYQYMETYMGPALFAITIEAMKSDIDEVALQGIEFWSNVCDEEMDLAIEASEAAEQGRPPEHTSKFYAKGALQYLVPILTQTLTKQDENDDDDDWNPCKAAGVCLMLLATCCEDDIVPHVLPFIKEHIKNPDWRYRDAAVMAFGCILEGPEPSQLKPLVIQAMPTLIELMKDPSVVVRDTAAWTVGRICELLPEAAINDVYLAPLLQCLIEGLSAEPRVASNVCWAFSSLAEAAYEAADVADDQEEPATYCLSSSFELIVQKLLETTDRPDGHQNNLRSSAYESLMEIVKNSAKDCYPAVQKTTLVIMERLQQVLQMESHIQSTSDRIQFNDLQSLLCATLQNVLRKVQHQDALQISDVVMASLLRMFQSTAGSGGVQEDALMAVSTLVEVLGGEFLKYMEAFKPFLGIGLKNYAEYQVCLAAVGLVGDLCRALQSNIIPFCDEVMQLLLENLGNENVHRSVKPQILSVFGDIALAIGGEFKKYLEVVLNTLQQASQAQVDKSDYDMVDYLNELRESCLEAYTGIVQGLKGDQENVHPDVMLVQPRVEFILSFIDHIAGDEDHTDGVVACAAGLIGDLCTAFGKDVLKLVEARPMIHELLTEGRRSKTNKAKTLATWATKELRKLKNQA
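FRET biosensor (snurportin 1 IBB flanked by EYFP and cerulean), 50 nM, with compound 5 min, then 0.125 microM importin beta in PBS, 1 mM DTT, 0.02% Tween-20, 0.1% BSA. CFP/YFP ratio read after 45 min at room temperature; pre-read flags interference.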
Rango dissoc inh: prevents RanGTP from dissociating the Rango-importin beta complex; O95149+P62826; hit rate 0.071% among 340,000; Potency, µM (top dose mostly 46.1 µM), without a hit: at the highest dose activity change, negative = inhibition; Biochemical FRET Rango-importin beta, RanGTP-induced dissociation; active means falling FRET ratio curve, often poorly fitted, with flat reads before Ran was added; inconclusive means other falling curves, or compound fluorescence or quenching; inactive means flat or rising ratio curve;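 note: potency is the fitted concentration of half-maximal effect; % of control where 0% means no effect; nearly all actives have a fitted effect of over 45% in size; -100% = wells without RanGTP and RCC1; the record marks most hits as doubtful in a second field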
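Quantitative HTS using a FRET biosensor: 0.1 uM Rango, 0.25 uM importin beta, 0.6 uM Ran, 2 mM GTP, 0.2 uM RCC1 final, PBS with DTT, Tween-20 and BSA. Post-read taken 45 min after Ran addition.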
The depositor's hits bear a star; u = inconclusive; x = not tested or not shown.

Rango-impB inh,GLA inh pH 4.5,miR-21 FLuc,Rango dissoc inh,structure
1.3%,0,-1%,5%,Cc1ccc(CNC(=S)Nc2cc(C)ccc2OC(F)F)cc1
-2.7%,6,-12%,18%,COCCCNC(=S)N(Cc1cccnc1)Cc1ccc(OC)c(OC)c1
-0.6%,-3,-18%,21%,CCOC(=O)Cn1nc(-c2ccc(Cl)cc2)ccc1=O
-4.0%,7,9%,18%,O=C(c1ccco1)N(Cc1ccc2c(c1)OCO2)Cc1cc2cc3c(cc2[nH]c1=O)OCO3
u,-1,11%,2%,CC(CS(=O)(=O)c1ccccc1[N+](=O)[O-])N1CCOCC1 (configuration not stated)
-0.6%,-29,-4%,-15%,CCCCN(C)Cc1c(C(=O)N2CCc3ccccc3C2)nc2ccc(Cl)cn12
-1.8%,-2,-1%,-13%,CN(Cc1ccccc1)C(=S)Nc1ccc2nc3n(c(=O)c2c1)CCCCC3
7.3%,-14,9%,0%,Cc1cc(/C=N/n2cnnc2)c(C)n1-c1ccc(OCc2ccc(F)cc2)cc1
2.1%,2,3%,14%,CCO/N=C(\N)c1[nH]ncc1Br
-1.3%,x,-14%,-11%,COc1cccc(NC(=S)NC(=O)c2cccnc2)c1
-1.8%,5,-8%,12%,COC(=O)c1c(N=CN(C)C)c(C#N)c2n1CCCC2
-3.9%,-9,-12%,1%,Cc1nc(N2CCOCC2)nc(Oc2ccccc2)c1[N+](=O)[O-]
1.6%,x,x,7%,COC(=O)c1c(-c2ccc(OC)cc2)sc2ccc(-c3ccc4c(c3)OCO4)cc12
3.9%,-1,-5%,-3%,Cn1c(=O)n(Cc2ccccc2)c2ccccc21
-0.7%,x,x,18%,C[C@H](CO)N1C[C@H](C)[C@@H](CN(C)C(=O)Nc2ccc3c(c2)OCO3)Oc2ccc(NS(=O)(=O)c3ccccc3)cc2C1=O
-2.5%,0,-7%,10%,COc1cc(OC)c(NC2c3ccccc3C(=O)N2c2cc(C)ccn2)cc1Cl (configuration not stated)
1.0%,8,-10%,14%,Cc1cccc(NC(=S)NCC2CCCO2)c1 (configuration not stated)
u,4,2%,-4%,COc1ccc2c(c1)C(=O)N(c1ccccc1)C(=O)C2
-3.6%,x,-1%,29%,O=C(c1ccc2c(c1)CCN2S(=O)(=O)c1ccccc1)N1CCN(c2ccccc2)CC1
-0.4%,2,0%,-16%,CC(=O)N1N=C(c2cccc([N+](=O)[O-])c2)OC1c1ccc(Br)cc1 (configuration not stated)
1.3%,-16,-11%,-2%,COCCCNCCCOc1ccc(Cl)cc1C(C)(C)C
u,-4,-4%,10%,Cc1ccc(NC2CCCCC2NS(=O)(=O)c2ccc(Cl)cc2)cc1 (configuration not stated)
5.1%,x,-53%,-14%,Fc1ccc(-c2nnc(-c3ccc(F)cc3)o2)cc1
u,9,9%,-14%,C=CCN1C=C/C(=C\C=C(C#N)C#N)c2ccccc21
1.1%,-2,0%,3%,O=C1CN(CC(=O)NC(=O)NCc2ccccc2)CCN1
-3.6%,-3,3%,-9%,COc1cc2nc(CN3CCC(Cc4ccccc4)CC3)[nH]c(=O)c2cc1OC
0.9%,-4,-2%,3%,CCCCOc1ccc(C(NC(=O)OCC)NC(=O)OCC)cc1
0.9%,5,-4%,2%,N#CCCN(C(=O)CO/N=C/c1cccc([N+](=O)[O-])c1)c1ccccc1
-2.6%,-3,-7%,-10%,CSc1nnc(CNC(=O)C23CC4CC(CC(C4)C2)C3)n1Cc1ccccc1
3.2%,-1,-4%,3%,CC1(C)CC(O)C(C(O)c2cccc([N+](=O)[O-])c2)C(C)(C)N1 (configuration not stated)
x,5,0%,x,COc1cc2c(C#N)c(N3CCN(C)CC3)nc(N)c2c(N)n1
u,0,23%,u,CCOC(=O)C1=C(N)n2c(s/c(=C\c3ccco3)c2=O)=C(C(=O)OCC)C1c1ccco1 (configuration not stated)
1.1%,x,1%,14%,CCOc1cccc(CN2CCCC(N3CCN(c4cccc(Cl)c4)CC3)C2)c1O (configuration not stated)
-0.4%,x,-7%,-5%,CC(C)CN(C(=O)COC(=O)c1nc(Cl)ccc1Cl)c1c(N)n(Cc2ccccc2)c(=O)[nH]c1=O
-1.8%,-5,-57%,8%,COc1cnn(-c2ccc(C)cc2)c(=O)c1Br
-0.7%,x,-4%,0%,COc1cc(C(=O)OCC(=O)NCc2ccc(F)cc2)ccc1OCC(C)C
1.6%,x,x,0%,CC1CCN(c2ccc(NC(=O)C3CCCN3S(=O)(=O)c3ccc(F)cc3)cc2)CC1 (configuration not stated)
x,-14,-4%,x,Cc1ccc2[nH]c3c(N4CCN(Cc5ccc6c(c5)OCO6)CC4)ncnc3c2c1
-0.9%,3,23%,0%,C/C=C\C=C/C(=O)Nc1cccc(C2=NOC3(C2)C[C@@H](C(N)=O)N(C(=O)COc2ccc(Cl)cc2)C3)c1 (some centres not stated)
1.2%,-5,-1%,0%,CC(C)[C@H](NC(N)=O)C(=O)Nc1cccc([N+](=O)[O-])c1
1.2%,x,-4%,10%,COc1ccccc1CCNC(=O)C1CCC(=O)N(C2CCCCCC2)C1 (configuration not stated)
-2.3%,x,x,10%,CCOC(=O)c1ccccc1OC(=O)NNc1ccccc1
1.2%,9,-1%,10%,Cc1nn(CC(=O)NCCCN2CCOCC2)c(C)c1[N+](=O)[O-]
u,0,u,u,COc1ccc(-c2c[n+]3c4n2CCCCC4=C(c2ccc(Br)cc2)C3)cc1
0.9%,1,-1%,3%,CCN(CC)CCNC(=O)c1ccc(Cl)c(S(=O)(=O)N2CCCCCC2)c1
-1.0%,1,1%,-11%,CN(C)C(=O)c1c(C(F)(F)F)nn(C)c1Cl
4.7%,-6,-11%,-1%,CCC1CCc2c(sc3ncnc(N4CCOCC4)c23)C1 (configuration not stated)
u,x,x,25%,COc1ccc2[nH]c3c(c2c1)CCN1C(=O)C(CC(=O)NCCCn2ccnc2)C[C@H](C(=O)N2CCCCC2)[C@@]31CCc1ccccc1 (some centres not stated)
1.5%,8,1%,8%,C/C(=N/O)c1cc(C(C)(C)C)c(O)c(C(C)(C)C)c1
-2.7%,x,-8%,-8%,CCOc1ccc(C(=O)OC2CCCN(C)C2)cc1 (configuration not stated)
0.6%,x,x,26%,CCOc1ccc(S(=O)(=O)/N=C(/Nc2ccc(S(N)(=O)=O)cc2)c2ccccc2)cc1
3.5%,1,-6%,1%,Cc1cc(C(=O)Nc2cccnc2Cl)on1
2.2%,-25,-3%,-8%,CN(C)S(=O)(=O)CC12CCC(CC1=O)C2(C)C (configuration not stated)
-2.3%,x,5%,-8%,COC(=O)c1ccc(NC(=O)CSc2nnc(C)n2CC2CCCO2)cc1 (configuration not stated)
-0.7%,-5,-28%,9%,Cn1c(SCc2nc3ccccc3c(=O)[nH]2)nc2ccccc21
-1.8%,x,10%,37%,Cc1ccc(S(=O)(=O)NCCC2=CCCCC2)cc1C(N)=O
0.4%,x,1%,-15%,COc1ccc(CCC(=O)N2CCN(C(=O)c3ccccc3)CC2)cc1
-2.6%,1,-3%,1%,O=C(NN1C(=O)C2C3C=CC(C3)C2C1=O)c1cccc(Cl)c1 (configuration not stated)
u,-3,-36%,u,O=C1CCC/C(=N/NC(=O)c2sc3ccccc3c2Cl)C1
-0.2%,x,x,-16%,Cc1onc(-c2ccccc2Cl)c1C(=O)Nc1cccc(S(=O)(=O)N2CCOCC2)c1

Random excerpt: 4 records from the list
Rango-impB inh,GLA inh pH 4.5,miR-21 FLuc,Rango dissoc inh,structure
1.6%,x,x,0%,CC1CCN(c2ccc(NC(=O)C3CCCN3S(=O)(=O)c3ccc(F)cc3)cc2)CC1 (configuration not stated)
1.5%,8,1%,8%,C/C(=N/O)c1cc(C(C)(C)C)c(O)c(C(C)(C)C)c1
-2.3%,x,x,10%,CCOC(=O)c1ccccc1OC(=O)NNc1ccccc1
-1.0%,1,1%,-11%,CN(C)C(=O)c1c(C(F)(F)F)nn(C)c1Cl

A second format for some results above.
canonical_smiles: COc1ccc(CCC(=O)N2CCN(C(=O)c3ccccc3)CC2)cc1
  Rango-impB inh = 0.4%
  GLA inh pH 4.5 = x
  miR-21 FLuc = 1%
  Rango dissoc inh = -15%
canonical_smiles: CC(C)[C@H](NC(N)=O)C(=O)Nc1cccc([N+](=O)[O-])c1
  Rango-impB inh = 1.2%
  GLA inh pH 4.5 = -5
  miR-21 FLuc = -1%
  Rango dissoc inh = 0%
canonical_smiles: CC(C)CN(C(=O)COC(=O)c1nc(Cl)ccc1Cl)c1c(N)n(Cc2ccccc2)c(=O)[nH]c1=O
  Rango-impB inh = -0.4%
  GLA inh pH 4.5 = x
  miR-21 FLuc = -7%
  Rango dissoc inh = -5%

(cont.)
Rango-impB inh,GLA inh pH 4.5,miR-21 FLuc,Rango dissoc inh,structure
-0.3%,-5,-27%,-1%,Cc1csc(NC(=O)c2ccc(Cl)cc2[N+](=O)[O-])n1
3.2%,x,x,3%,CCN1CCN(c2ccc(S(=O)(=O)N3CCCCC3)cc2NC(=O)c2ccc(OC(F)F)cc2)CC1
u,30,2%,u,COCCCNC(=O)c1c(N)n(-c2cccc(S(N)(=O)=O)c2)c2nc3ccccc3nc12
u,x,0%,1%,COc1ccccc1CN1CCNC(=O)C1CC(=O)NCCCN1CCCC1=O (configuration not stated)
-2.8%,x,-48%,8%,O=C(CSc1ccccc1)NCCc1ccc(F)cc1
u,0,-5%,-22%,Cc1cc(=O)n(CC(C)C)c(O)c1C#N
3.8%,-2,-39%,u,O=C(Cn1cc2c(n1)CCCC2)Nc1cc(-c2cccc(Cl)c2)no1
-0.7%,-5,-6%,0%,COC(=O)c1ccccc1NC(=O)CN1CCC(C)CC1
-0.2%,2,-13%,-15%,CC(C)C(NC(=O)C1CCC(C(C)(C)C)CC1)C(=O)NCCCN1CCCCC1 (configuration not stated)
u,4,-6%,u,C[C@@H]1C[C@H](O)c2cc(Cl)ccc2N1
0.5%,-4,-9%,-4%,C=C(C)C1CC=C(C)/C(=N\NC(=S)Nc2ccc(C)cc2)C1 (configuration not stated)
-0.1%,6,3%,-9%,CCOc1ccc(OCC)c(NC(=O)c2[nH]c(C)c(C(C)=O)c2C)c1
-3.4%,3,-11%,-3%,Cn1c(=O)c2c(n3cnnc13)-c1ccccc1CC21CCCC1
u,x,-2%,-6%,CCc1nn(C(CC)C(=O)NCc2cccc(OC)c2)c(=O)c2cc3occc3n12 (configuration not stated)
-1.1%,-2,-1%,-27%,CCc1nnc(NC(=O)C2Cc3ccccc3C(=O)O2)s1 (configuration not stated)
-1.9%,-1,-3%,2%,CCCn1c(SCC(=O)Nc2cccc(NC(C)=O)c2)nnc1C(C)C
-1.4%,9,-8%,6%,COc1cc(OC)c(-c2nn3c(-c4ccco4)nnc3s2)cc1OC
-0.5%,1,1%,1%,N#CC1=C(N)OC2=C(C(=O)CCC2)C1c1ccncc1 (configuration not stated)
-3.3%,x,x,1%,C[C@@H]1CN([C@@H](C)CO)C(=O)Cc2cc(NS(=O)(=O)c3ccccc3)ccc2O[C@H]1CN(C)S(C)(=O)=O
1.9%,0,-4%,-4%,CCOC(=O)/C(C(C)=O)=C1\OC(=O)c2ccccc21
-4.1%,5,-5%,-5%,COc1ccccc1N(CC(=O)Nc1cccnc1)S(C)(=O)=O
-2.7%,x,7%,15%,NNC(=O)c1cccn(Cc2cccc(C(F)(F)F)c2)c1=O
-2.0%,-3,-9%,-8%,Cc1cc(C(=O)NCc2cccnc2)cs1
0.1%,x,5%,-5%,COC(=O)c1ccc(CN2C(=O)C(C)N(C(=O)c3c(F)cccc3F)c3ccccc32)cc1 (configuration not stated)
-2.7%,2,-16%,7%,CCSc1nc2c(c(=O)[nH]1)C(c1ccncc1)C(C(=O)OC(C)C)=C(C)N2 (configuration not stated)
u,x,-20%,u,O=[N+]([O-])c1ccc(N/N=C/c2ccccc2O)cc1
-0.6%,-6,24%,-7%,O=[N+]([O-])c1ccc(Nc2nc(N/N=C/c3cccc(F)c3)nc(N3CCCC3)n2)cc1

These rows are one share of the data. The share of hits here may be higher or lower than overall.
